# LASV entry inh: blocks Lassa virus binding to or entry into cells | Potency, µM (titrated, usually from 37.9 µM), for the others: at the highest dose activity change, negative = inhibition, hits mostly inhibitors | Lassa virus pseudotype entry inhibition, cell reporter; control for the full effect not named in the record | 300,000 compounds, 1.2% hits; active means well fitted inhibition curve with a large enough effect; inconclusive means small, poorly fitted or top-dose-only effect, or effect the other way; inactive means flat fitted curve, though single readings scatter; tested in HEK293 cells; also: % is scaled to controls: 0 for no effect and ±100 for the full control effect; nearly all actives have a fitted effect of over 50% in size; luciferase read-out
# RE007 growth inh: less growth of the S. pombe RE007 Vpr strain. 360,000 compounds, 0.21% hits. Potency, µM (series often up to 92.2 µM), without a hit: at the top dose activity change, negative = less growth. S. pombe RE007 Vpr strain, BacTiter-Glo ATP luminescence, 24 h; control for the full effect not named in the record. AID 651644; active = well fitted falling curve with a large enough effect; inconclusive = small, poorly fitted or top-dose-only effect; inactive = no such curve, though single readings can be large or run the other way;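 also: % is scaled to controls: 0 for no effect and ±100 for the full control effect; nearly all actives have a fitted effect of over 50% in size; the assay follows cell death caused by Vpr and the record does not say whether a fall means rescue or toxicity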
#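 Fission yeast strain RE007, carrying one chromosomally integrated HIV-1 vpr copy, was seeded at OD 0.01 in PMG+AL medium with 23 nL pinned compound. After 24 h at 30 °C and 99% humidity, viability was read by BacTiter-Glo luminescence.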
# SARS PLP yeast: blocks SARS-CoV papain-like protease in a yeast assay. S. cerevisiae expressing SARS-CoV PLpro, growth rescue; control for the full effect not named in the record. Potency, µM (titrated, usually from 32.9 µM), without a hit: at the top dose activity, positive = growth rescue. 330,000 compounds, 0.19% hits. AID 485353; active means well fitted rising curve with a large enough effect; inconclusive means small, poorly fitted or top-dose-only effect; inactive means no such curve, though single readings can be large or run the other way; also: 0% is about no effect; nearly all actives have a fitted effect of over 55% in size; growth read by luminescence after 48 h
# StopGo reporter: lowers the luciferase signal of an FMDV 2A StopGo reporter | Potency, µM (titrated, usually from 57.9 µM), for the others: at the highest dose signal change, negative = less light | 410,000 compounds, 1.2% hits | AID 1159524 | human cells with a luciferase reporter of 2A StopGo recoding; control for the full effect not named in the record; active = well fitted falling curve with a large enough effect; inconclusive = small, poorly fitted or top-dose-only effect; inactive = no such curve, though single readings can be large or run the other way; tested in HEK293T cells; also: % is scaled to controls: 0 for no effect and ±100 for the full control effect; nearly all actives have a fitted effect of over 45% in size; luciferase light after 4 h
# Starred values were filed as active, the others as inactive; ? = inconclusive; . = no result given; & = joins results of further samples; [ ] = another dose, or the depositor's remark. Potency is read from the fitted curve at half-maximal effect. Only part of the results is shown. The share of hits here may be higher or lower than overall.
canonical_smiles,StopGo reporter,SARS PLP yeast,RE007 growth inh,LASV entry inh
Cc1ccc(NC(=O)C(C)Sc2nc3nc(C)cc(C)n3n2)cc1 (stereo not given),-22.1%,-0.8%,-2.7%,.
Cc1ccc(CN(C)C(=O)CN2C(=O)NC3(CCCc4ccccc43)C2=O)c(C)c1 (stereo not given),0.0%,-1.5%,-1.3%,.
Cc1noc(C)c1S(=O)(=O)N(C)C[C@H]1Oc2c(NS(=O)(=O)c3cn(C)cn3)cccc2C(=O)N([C@H](C)CO)C[C@@H]1C,2.3%,0.8%,14.4%,.
COc1cc(OC)cc(C(=O)NNC(=O)C2CSC3(C)CCC(=O)N23)c1 (stereo not given),-11.1%,0.8%,15.3%,.
O=[N+]([O-])c1cccc(CSc2cccc[n+]2[O-])c1,-7.7%,-1.1%,1.0%,.
CCCCN(C(=O)c1ccc(NC2CC2)c([N+](=O)[O-])c1)c1c(N)n(CC(C)C)c(=O)[nH]c1=O,0.0%,1.4%,?,.
COc1cc2c3nnc(-c4ccc(F)cc4)c-3cn(Cc3cccc(F)c3)c2cc1OC,-16.8%,3.3%,0.2%,.
O=C(COC(=O)C1CCC(=O)N1)Nc1ccccc1Br (stereo not given),-12.2%,16.3%,-0.4%,.
COc1ccccc1-c1noc(Cn2cc(S(=O)(=O)N3CCCC3)ccc2=O)n1,?,3.1%,-6.0%,.
CC(C)(C)CN1CCNC[C@H]1Cc1ccc(O)cc1,?,5.0%,-15.4%,.

# The list goes on.
canonical_smiles,StopGo reporter,SARS PLP yeast,RE007 growth inh,LASV entry inh
Nc1nc(SCC(=O)N2CCCc3ccccc32)n[nH]1,0.0%,-2.3%,-12.6%,.
c1ccc(-c2cc3ncccc3cn2)cc1,46.3%[activator],6.5%,5.9%,.
COc1ccccc1CCC(=O)OCC(=O)N1c2ccccc2NC(=O)C1(C)C,-14.9%,-6.1%,1.7%,.
COc1ccc(/C=N/NC(=O)c2cccc(S(=O)(=O)N3CCCC3)c2)cc1O,-21.5%,3.1%,-2.5%,.
CN1CCN(S(=O)(=O)c2ccc(N(C)Cc3cccc(F)c3)nc2)CC1,-7.3%,-8.0%,-14.5%,.
Cc1c(C(=O)N2CCC3(CC2)CC(=O)c2ccccc2O3)cccc1[N+](=O)[O-],?,-11.5%,-3.5%,.
Cc1cc(Cn2nc(C(=O)NCC3CC3)cc2-c2ccccc2)on1,-13.8%,-1.5%,-3.8%,.
CCOc1ccc(NC(=O)NC(=O)N(C)S(=O)(=O)c2ccc(C)cc2)cc1,-8.7%,-0.8%,7.3%,.
C[C@@]12C(=O)N(CC3CCCO3)CC(=O)N1[C@H]1c3cc(Cl)ccc3OC[C@@H]1[C@@H]2c1ccccc1 (stereo not given in full),-24.6%,-3.8%,9.0%,.
CN(C)C(CNC(=O)c1cccs1)c1ccco1 (stereo not given),1.5%,10.0%,-4.7%,.

# (listing goes on)
canonical_smiles,StopGo reporter,SARS PLP yeast,RE007 growth inh,LASV entry inh
S=c1sc2ccccc2n1CCc1ccncc1,1.1%,0.8%,-6.5%,.
COc1cccc(NC(=O)CN(C)C(=O)c2ccc(NS(=O)(=O)c3ccc(F)cc3)cc2)c1,-15.4%,-6.9%,-8.2%,.
O=S(=O)(c1cccc(F)c1)N1CCN(Cc2cc3c(cc2Br)OCCO3)CC1,-28.5%,7.1%,-1.5%,.
Cc1cc(NC(=O)C(C)SCC(=O)N(C)Cc2ccccc2F)no1 (stereo not given),-18.2%,-1.3%,-9.2%,.
COc1ccc([C@H]2C[C@@H](O)[C@H](n3cc(COC(=O)c4ccccc4)nn3)CN2C(=O)c2cccs2)cc1,-11.9%,.,-18.2%,?
CCCCN1CC(COc2ccccc2)Oc2cccc(F)c2S1(=O)=O (stereo not given),-8.6%,.,3.6%,19.5%[46.1 µM]
C=CCCC1CN(CCCC)S(=O)(=O)c2c(F)cccc2O1 (stereo not given),0.0%,.,-13.9%,?
O=C(Nc1ccc(C(=O)N2CCCCC2)cc1)C1CCCC1,7.6%,.,-8.6%,0.2%[46.1 µM]
Cc1ccc([C@H]2C[C@H](O)[C@@H](n3cc(C4CC4)nn3)CN2C(=O)C2CCCCC2)cc1,-20.6%,.,-2.7%,?
CCCCCCN1CCN(C2CN(Cc3ccc(C)cc3)S(=O)(=O)C2)CC1 (stereo not given),-22.4%,.,0.0%,6.28µM*

# (further entries)
canonical_smiles,StopGo reporter,SARS PLP yeast,RE007 growth inh,LASV entry inh
COc1ccc([C@H]2C[C@H](O)[C@@H](n3cc(C4CC4)nn3)CN2C(=O)c2cccs2)cc1,-4.5%,.,3.6%,?
COc1ccc(CNS(=O)(=O)CCNCc2ccco2)cc1,-2.9%,.,7.5%,?
COc1cc2oc(=O)cc(CN3CCCC3)c2cc1Cl,-2.7%,.,-11.4%,7.6%[46.1 µM]
CC1C(=O)N(Cc2cn(CCC3OCCO3)nn2)CCS(=O)(=O)N1Cc1ccc(-c2cccc(N(C)C)c2)cc1 (stereo not given),-12.2%,.,5.7%,3.0%[46.1 µM]
Cc1ccc(-c2ccc(CN3C(C(C)C)C(=O)N(Cc4cn(CC5CCCCC5)nn4)CCS3(=O)=O)cc2)cc1 (stereo not given),-22.1%,.,5.3%,?
O=S(=O)(c1c(F)cccc1F)N(CCc1ccc(F)cc1)C[C@@H](O)COCc1ccccc1,0.6%,.,1.7%,?
CCCCCCN1CCN(C2CN(CCCC)S(=O)(=O)C2)CC1 (stereo not given),-13.3%,.,-23.0%,1.5%[46.1 µM]
CCCCN1CC(N2CCN(CCO)CC2)CS1(=O)=O (stereo not given),-4.0%,.,8.9%,?
CC(C)C1C(=O)N(Cc2cn(CC3CCCCC3)nn2)CCS(=O)(=O)N1Cc1ccc(-c2ccc(Cl)cc2)cc1 (stereo not given),-26.2%,.,13.5%,?
COc1ccc(NC(=O)C[C@H]2C(=O)N(Cc3ccccc3)C[C@@H]2C)cc1,-20.3%,.,14.7%,?

# Remaining list, next part
canonical_smiles,StopGo reporter,SARS PLP yeast,RE007 growth inh,LASV entry inh
CCCCN1C[C@H](c2ccc(OC)cc2)[C@@H](CC(=O)Nc2ccc(Br)cc2)C1=O,0.0%,.,-9.4%,14.9%[46.1 µM]
O=C(NCCCCc1ccccc1)c1cccc(NC(=O)C2CCC2)c1,-15.6%,.,6.5%,?
CCCCN1CC(COCc2ccccc2)Oc2cccc(Oc3ccc(C(C)C)cc3)c2S1(=O)=O (stereo not given),9.1%,.,1.7%,-2.9%[46.1 µM]
CCOC(=O)[C@@H]1CSCCS(=O)(=O)N1,-19.7%,.,2.0%,-6.5%[46.1 µM]
CCc1cc(-c2cnnn2CCc2c[nH]c3ccccc23)ccc1-c1cn(CC(C)C)nn1,-22.7%,.,-12.3%,7.91µM*
CCCN(CCC)Cc1cc(=O)oc2cc(OC)c(Cl)cc12,-16.3%,.,-10.7%,3.8%[46.1 µM]
CC(C)CC1C(=O)N(Cc2cn(Cc3ccco3)nn2)CCS(=O)(=O)N1Cc1ccc(-c2ccncc2)cc1 (stereo not given),?,.,-9.9%,0.3%[46.1 µM]
COc1ccc(N2C[C@H](Cc3ccccc3)[C@@H](CC(=O)Nc3ccccc3)C2=O)cc1,-7.8%,.,-10.3%,?
Cc1cc(C)c2c(CN(C)Cc3ccccc3)cc(=O)oc2c1,53.4%[activator],.,9.8%,9.96µM*
CN(c1cc(Cl)c2c(c1)OCO2)c1cc2c(c3c1ccn3C)C1CCC2C1 (stereo not given),-26.5%,.,?,?

# The list goes on.
canonical_smiles,StopGo reporter,SARS PLP yeast,RE007 growth inh,LASV entry inh
O=c1cc(CN2CCN(c3ccccc3)CC2)c2ccccc2o1,-16.1%,.,28.8%,-54.8%[46.1 µM]
COc1ccc([C@H]2C[C@H](O)[C@@H](n3cc(COC(=O)c4ccccc4)nn3)CN2CC2CCCCC2)cc1,?,.,-19.4%,?
COCOCCn1cc(CN2CCS(=O)(=O)N(Cc3ccc(-c4ccc(Cl)cc4)cc3)C(C)C2=O)nn1 (stereo not given),?,.,3.3%,?
C=CCCC1CN(Cc2ccco2)S(=O)(=O)c2c(F)cccc2O1 (stereo not given),0.0%,.,-3.5%,?
CC1C(=O)N(Cc2cn(CCC3OCCO3)nn2)CCS(=O)(=O)N1Cc1ccc(-c2ccc(Cl)c(Cl)c2)cc1 (stereo not given),?,.,7.4%,?
CC(C)CC1C(=O)N(Cc2cn(CC3CCCCC3)nn2)CCS(=O)(=O)N1Cc1ccc(-c2cccc(CO)c2)cc1 (stereo not given),-21.5%,.,16.0%,?
O=C(C[C@H]1C(=O)N(c2ccc(Br)cc2)C[C@@H]1Cc1ccccc1)Nc1ccccc1,0.0%,.,7.0%,4.99µM*
Cc1ccc2c(CN3CCN(c4ccccc4F)CC3)cc(=O)oc2c1,-15.7%,.,2.7%,9.3%[46.1 µM]
COc1cc2oc(=O)cc(CN3CCOCC3)c2cc1Cl,-8.7%,.,6.5%,-0.1%[46.1 µM]
COc1ccc([C@H]2C[C@H](n3cc(COC(=O)c4ccccc4)nn3)[C@@H](O)CN2C(=O)C2CCCCC2)cc1,-5.5%,.,13.4%,?

# Next structures follow.
canonical_smiles,StopGo reporter,SARS PLP yeast,RE007 growth inh,LASV entry inh
CN1CCN(C2CN(Cc3ccccc3)S(=O)(=O)C2)CC1 (stereo not given),-15.3%,.,8.8%,1.3%[46.1 µM]
O=C(Cn1cc(COc2c(F)c(F)cc(F)c2F)nn1)c1ccc(O)cc1,-9.1%,.,-1.1%,1.5%[46.1 µM]
Cc1ccc(-c2ccc(CN3C(C)C(=O)N(Cc4cn(Cc5ccco5)nn4)CCS3(=O)=O)cc2)c(C)c1 (stereo not given),4.6%,.,9.5%,?
CC(C)(C)OC(=O)N1CCCC(C(=O)Nc2cccc(C(=O)N3CCOCC3)c2)C1 (stereo not given),-7.7%,.,-3.1%,?
COc1ccc(NC(=O)C[C@H]2C(=O)N(C3CCCCC3)C[C@@H]2CSC)cc1,-11.1%,.,2.7%,12.8%[46.1 µM]
Cc1ccc2c(CN(C)Cc3ccccc3)cc(=O)oc2c1,37.4%[activator],.,-1.4%,?
CCCCN(CCCC)Cc1cc(=O)oc2cc(C)cc(C)c12,-17.1%,.,-7.5%,1.4%[46.1 µM]
Cc1ccc([C@H]2C[C@H](O)[C@@H](n3cc(COC(=O)c4ccccc4)nn3)CN2C(=O)c2cccs2)cc1,-3.5%,.,11.6%,1.0%[46.1 µM]
CCN(C)c1cc2c(c3c1ccn3C)C1CCC2C1 (stereo not given),-11.6%,.,-20.1%,12.9%[46.1 µM]
Cc1ccccc1-c1cc2c(c3c1ccn3C)C1CCC2O1 (stereo not given),-18.7%,.,-13.9%,2.9%[46.1 µM]

# (more compounds)
canonical_smiles,StopGo reporter,SARS PLP yeast,RE007 growth inh,LASV entry inh
COc1cccc(CNS(=O)(=O)c2cc(Br)ccc2Br)c1,25.4%,.,-5.6%,-8.2%[46.1 µM]
O=[N+]([O-])c1ccc(CN2CC(N3CCN(CC4CC4)CC3)CS2(=O)=O)cc1 (stereo not given),-17.2%,.,4.5%,?
CC(C)(C)OC(=O)N1CCCC(C(=O)Nc2cccc(C(=O)NC3CC3)c2)C1 (stereo not given),-26.6%,.,-3.0%,-7.6%[46.1 µM]
COCCN(CCOC)Cc1cc(=O)oc2cc(C)ccc12,-11.3%,.,-0.8%,8.6%[46.1 µM]
O=C(NCCc1ccccc1)c1cccc(NC(=O)C2CCCCC2)c1,31.4%[activator],.,3.9%,?
Cc1ccc(-c2ccc(CN3C(C)C(=O)N(Cc4cn(CCC5OCCCO5)nn4)CCS3(=O)=O)cc2)cc1 (stereo not given),-9.3%,.,-16.6%,?
CC1C(=O)N(Cc2cn(CCC3OCCO3)nn2)CCS(=O)(=O)N1Cc1ccc(-c2ccncc2)cc1 (stereo not given),-4.7%,.,4.2%,11.7%[46.1 µM]
Cc1ccc(-n2c(=O)c3c(c4cc(C)ccc4n3C)n(CC(=O)NCC3CCCO3)c2=O)cc1 (stereo not given),-18.7%&-18.7%,.,5.0%,4.2%[46.1 µM]
Cc1cc2oc(=O)cc(CN(C)Cc3ccccc3)c2cc1Cl,12.8%,.,-8.2%,?
O=c1cc(CN2CCOCC2)c2ccccc2o1,-14.4%,.,-1.2%,?
CN1CCN(C2CN(C3CCCCC3)S(=O)(=O)C2)CC1 (stereo not given),-21.3%,.,7.0%,-2.0%[46.1 µM]
O=C(NCCc1ccccc1)c1ccc(NC(=O)C2CCC2)cc1,64.9%[activator],.,1.7%,?

# Screens (PubChem BioAssay)
